MT1-MMP act inh = blockers of MT1-MMP proenzyme processing, primary screen, HT1080 RFP-PRO-GFP cells, GFP/RFP fluorescence | Matrix metalloproteinase-14 (Homo sapiens), P50281 | GFP/RFP ratio fluorescence, overnight; percent of plate control window, DMSO zero | GFP/RFP ratio change, % at 20 µM | hit rate 0.061% among 360,000 | AID 651647, 2012;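 active = GFP/RFP ratio change of at least 30% with cell ATP level not reduced by more than half and red fluorescence within 50% of control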; also: strong numbers were not always called active
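Read-out: GFP/RFP fluorescence ratio; Test system: RFP-PRO-GFP reporter HT1080 cells; Compound dosing: single-point 20 µM compound, 1% DMSO; Times: overnight compound exposure at 37 °C.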
Rce1 inhib = yeast Rce1p protease inhibitors, primary screen, biochemical, fluorescence, cell-free homogeneous | CAAX prenyl protease 2 (Saccharomyces cerevisiae (strain ATCC 204508 / S288c)), Q03530 | yeast membranes, quenched prenylated peptide cleavage fluorescence | calls only | hit rate 0.27% among 290,000 | AID 2563, 2010;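 active = fall in fluorescence gain of 50% or more versus controls, with final raw signal at or below 3038400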;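 also: plate controls were neutral control wells for no effect and wells lacking membranes for full effect; tested at 10 µM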
Target sequence (Q03530 whole entry, looked up): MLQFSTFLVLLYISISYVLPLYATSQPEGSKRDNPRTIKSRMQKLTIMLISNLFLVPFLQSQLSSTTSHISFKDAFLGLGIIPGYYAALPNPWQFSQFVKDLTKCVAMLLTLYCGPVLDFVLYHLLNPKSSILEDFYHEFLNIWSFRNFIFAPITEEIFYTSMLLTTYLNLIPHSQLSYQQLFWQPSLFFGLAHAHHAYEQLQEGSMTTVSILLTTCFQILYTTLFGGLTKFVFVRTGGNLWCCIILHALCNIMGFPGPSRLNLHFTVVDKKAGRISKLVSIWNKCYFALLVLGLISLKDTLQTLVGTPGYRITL
Env fusion inh = inhibitors of HIV-1 Env-driven cell-cell fusion, primary screen, HeLa-JRFL effector, CEM21 target cells, luciferase; inhibition, % at 12.3 µM; hit rate 1.1% among 360,000;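 active = mean replicate inhibition score of at least 50 and every replicate individually at or above 50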;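 also: 0% = plate neutral controls and 100% = maraviroc near 300 nM; one replicate is shown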
UUG fidelity = modulators of yeast start codon fidelity, primary screen, whole organism, S. cerevisiae, single point, plate reader | S. cerevisiae UUG-firefly luciferase reporter, luminescence/redox ratio | hit rate 0.13% among 350,000 | activity score, % at 18.7 µM | AID 602363, 2012;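 active = replicate mean at a twofold rise or more, about +100% in these data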;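 also: firefly luciferase made from a UUG start codon reports start codon fidelity; reporter light over untreated wells divided by growth signal over untreated wells; some hits fall short of that in this replicate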
CSC inhib = cancer stem cell viability inhibitors, primary screen, luminescence | cancer stem cell-like cells viability | inhibition, % at 7.5 µM | hit rate 1.1% among 300,000;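 active = mean at 75% or more and at least half the replicates too; tested in HMLE shEcad cells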;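 also: 0% = median of negative and 100% = median of positive control wells; the first replicate is given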
eIF4H FP inh = human eIF4H binding inhibitors, primary screen, translation initiation inhibitor project, biochemical, uHTS, fluorescence polarization | Eukaryotic translation initiation factor 4H (Homo sapiens), Q15056 | inhibition, % at 35 µM | eIF4H fluorescence polarization binding assay | hit rate 0.94% among 290,000;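 active = 50% or more with normal probe brightness, or confirmed in later tests; about a fifth of its hits are not listed in these tables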;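 also: calls also rest on retests at 20 µM and on dose response follow-up; 0% = protein and probe with vehicle and 100% = probe without protein; strong numbers were not always called active; many hits fall short of the cut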
PABP FP inh = PABP poly(A) RNA binding inhibitors, primary screen, biochemical, fluorescence polarization, uHTS; Polyadenylate-binding protein 1 (Homo sapiens), P11940; inhibition, % at 35 µM; hit rate 1% among 290,000;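 active = 50% or more with normal probe brightness, or confirmed in later tests; about a fifth of its hits are not listed in these tables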;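 also: calls also rest on retests at 20 µM and on dose response follow-up; controls were probe without protein and protein plus probe with vehicle; some compounds called inactive have numbers as strong as hits; many hits fall short of the cut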
Target sequence (P11940 whole entry, looked up): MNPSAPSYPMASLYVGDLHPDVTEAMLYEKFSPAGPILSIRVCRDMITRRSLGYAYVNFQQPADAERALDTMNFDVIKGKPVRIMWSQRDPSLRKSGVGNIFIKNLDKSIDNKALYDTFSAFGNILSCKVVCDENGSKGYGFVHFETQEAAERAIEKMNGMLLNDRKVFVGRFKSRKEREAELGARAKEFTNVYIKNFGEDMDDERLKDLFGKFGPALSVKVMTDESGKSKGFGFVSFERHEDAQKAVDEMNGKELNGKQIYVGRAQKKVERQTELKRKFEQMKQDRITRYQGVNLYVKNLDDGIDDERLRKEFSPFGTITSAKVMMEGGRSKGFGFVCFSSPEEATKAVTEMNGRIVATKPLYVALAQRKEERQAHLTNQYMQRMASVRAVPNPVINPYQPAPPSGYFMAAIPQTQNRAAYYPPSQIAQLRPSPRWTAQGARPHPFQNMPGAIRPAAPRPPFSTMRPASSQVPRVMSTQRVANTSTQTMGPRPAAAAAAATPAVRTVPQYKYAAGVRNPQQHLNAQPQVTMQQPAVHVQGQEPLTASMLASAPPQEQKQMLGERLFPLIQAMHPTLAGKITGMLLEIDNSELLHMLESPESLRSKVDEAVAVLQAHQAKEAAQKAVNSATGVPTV
eIF4H FP inh retest = recorded beside eIF4H FP inh, whose call it bears; inhibition, %; compound at 20 µM; confirmation average;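 mean of two retest wells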
PABP FP inh retest = also measured in PABP FP inh; calls as there; inhibition, %; compound at 20 µM; confirmation repeats;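 mean of two retest wells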
MT1-MMP act inh RFP = also measured in MT1-MMP act inh; calls as there; RFP signal change, %; measured here: RFP expression control read;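 0 = vehicle wells; hits needed this value within 50% of zero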
* = called active by the depositor; i = inactive; · = no result given.

SMILES	MT1-MMP act inh	MT1-MMP act inh RFP	Rce1 inhib	Env fusion inh	UUG fidelity	CSC inhib	eIF4H FP inh	PABP FP inh	others
O=C(CN(Cc1ccccc1Cl)C(=O)c1csnn1)NCc1ccccc1	-0.2	0.9	i	10.8	-24.2	-6.8	-9.9	-6.9
Cn1nc(C(F)(F)F)c(C#N)c1N1CCN(c2ccccc2F)CC1	-0.5	4.4	i	·	-22.5	26.8	2.2	1.2
O=C(O)Cc1ccc(O)c(O)c1	4.6	2.3	i	26.6	-25.9	-5.6	-4.4	15.9
CC(C)(C)NC(=O)CN(C(=O)CS(=O)CC(=O)Nc1ccc(F)cc1)c1ccccc1 (configuration not stated)	-1.1	0.3	i	-0.3	-13.0	-14.0	-13.0	15.5
Cc1ccc(C)c(N(CC(=O)Nc2ccc(-c3nc4ccc(C)cc4s3)cc2)S(C)(=O)=O)c1	-6.0	-6.5	i	-45.5	-7.3	70.1	3.9	1.7
O=c1c2ccccc2nc(-c2ccccc2)n1CCCn1ccnc1	6.9	10.6	i	-17.4	-13.7	·	4.3	6.6
Cc1ccc(NC(=O)C2CC2c2ccccc2)cc1 (configuration not stated)	2.4	3.4	i	8.8	-10.0	·	-7.4	0.8
C=CCn1c(CSCc2ccc(F)cc2)n[nH]c1=S	0.6	-2.0	i	7.6	-5.3	-1.7	2.1	2.8
COc1ccc(OC)c(NC(=O)CN(c2ccc(C(C)C)cc2)S(=O)(=O)c2c(C)noc2C)c1	-16.6	-7.5	i	22.2	-11.4	45.8	-3.1	-2.0
CSc1ccc(CN2CCC(C)(Oc3cccc(Cl)c3)C2)cc1 (configuration not stated)	8.8	3.7	·	-16.4	0.1	·	·	·
CC1CCc2sc(C(=O)OCC(=O)NC(C)C)cc2C1 (configuration not stated)	-3.3	-2.1	i	-9.3	-15.3	15.8	10.8	5.9
COc1cc(-c2cc(C(=O)Nc3ccc(C)c(S(=O)(=O)N4CCOCC4)c3)c3ccccc3n2)cc(OC)c1OC	4.0	-2.4	·	i	-11.5	15.2	·	·
O=C(Oc1ccc(N(C(=O)c2ccncc2)S(=O)(=O)c2cccs2)cc1)c1ccncc1	-1.0	3.2	i	8.6	·	-7.8	9.6	5.6
COC(=O)CCCCCNc1ccc(C(=O)OC)cc1N	2.2	7.0	i	·	-17.7	7.2	-6.6	13.7
CCOc1ccc(-c2cc(N3C(=O)Nc4ccccc4N3O)on2)cc1	5.2	7.7	i	-41.1	-13.4	-23.0	0.3	-0.3
Cc1ccc(Cl)cc1N1CCN(C(=O)c2cc3c(=O)n(C)c4ccccc4c3n2C)CC1	-1.7	-33.3	i	28.4	-2.3	17.7	-14.0	-8.5
O=C(NCCN1CCOCC1)c1ccc([N+](=O)[O-])cc1[N+](=O)[O-]	-5.6	-3.3	i	·	-22.1	-8.9	-13.2	-2.1
COc1ccc(Cl)cc1NC(=O)C(OC)c1ccccc1 (configuration not stated)	-4.6	-3.6	i	20.9	-6.4	8.3	-1.3	0.5
CC(=O)Oc1ccc(-c2ccc(C(=O)O)cc2)cc1	0.6	5.8	i	·	-11.2	-7.4	-12.6	2.4
O=C(COC(=O)Cc1cccc(C(F)(F)F)c1)NC1CCS(=O)(=O)C1 (configuration not stated)	1.4	-0.5	i	14.2	·	·	·	·
CCOC(=O)c1c(CSc2ccc(CC)cc2)oc2ccc(O)c(CN(C)C)c12	-11.3	-22.5	i	56.5*	-10.5	81.5*	9.5	-5.2
COc1cccc(Nc2cc(C)nc3ccccc23)c1	-3.8	-1.1	·	13.2	2.0	-9.3	-3.7	1.6
COCCCNCCOc1cc(C(C)C)ccc1C	4.7	3.0	i	-12.1	5.4	-13.3	5.6	1.1
Cc1cc(NC(=O)Nc2cccc(Cl)c2)n(-c2ccccn2)n1	-2.6	-6.1	i	7.4	-20.1	37.4	-3.3	0.9
CC(Oc1ccc(Br)cc1Br)C(=O)Nc1cccnc1Cl (configuration not stated)	-13.7	-4.7	i	·	-7.1	7.4	-4.7	5.2

5 records picked at random from the list so far:
SMILES	MT1-MMP act inh	MT1-MMP act inh RFP	Rce1 inhib	Env fusion inh	UUG fidelity	CSC inhib	eIF4H FP inh	PABP FP inh	others
O=c1c2ccccc2nc(-c2ccccc2)n1CCCn1ccnc1	6.9	10.6	i	-17.4	-13.7	·	4.3	6.6
CC1CCc2sc(C(=O)OCC(=O)NC(C)C)cc2C1 (configuration not stated)	-3.3	-2.1	i	-9.3	-15.3	15.8	10.8	5.9
Cn1nc(C(F)(F)F)c(C#N)c1N1CCN(c2ccccc2F)CC1	-0.5	4.4	i	·	-22.5	26.8	2.2	1.2
COc1ccc(OC)c(NC(=O)CN(c2ccc(C(C)C)cc2)S(=O)(=O)c2c(C)noc2C)c1	-16.6	-7.5	i	22.2	-11.4	45.8	-3.1	-2.0
COC(=O)CCCCCNc1ccc(C(=O)OC)cc1N	2.2	7.0	i	·	-17.7	7.2	-6.6	13.7

More compounds follow:
SMILES	MT1-MMP act inh	MT1-MMP act inh RFP	Rce1 inhib	Env fusion inh	UUG fidelity	CSC inhib	eIF4H FP inh	PABP FP inh	others
O=C(C1CC1)N(Cc1nc2ccccc2c(=O)[nH]1)Cc1cccs1	1.2	2.3	i	-17.2	·	4.9	12.8	-6.6
Cc1ccc(F)cc1NC(=O)C1CCN(c2cnccn2)CC1	2.5	1.1	i	-20.8	-12.7	-5.5	-11.8	-0.5
CCCN1C(=O)/C(=C\C=C2/Sc3ccccc3N2CCO)SC1=S	37.9	60.1	i	0.8	·	-10.2	10.3	-2.4
Cc1nn(C)cc1CN(C)C(=O)c1cc2nc(-c3ccco3)cc(C(F)(F)F)n2n1	3.4	0.5	i	·	·	7.5	6.1	11.4
O=C(O)c1cccc2c1C(=O)c1ccc(N3CCCC3)cc1S2(=O)=O	-87.6	4.1	·	-16.0	6.5	-8.8	·	·
CCOC(=O)C1CCN(C(=O)C2CCN(S(=O)(=O)c3cccc4nsnc34)CC2)CC1	-1.4	-0.8	i	-7.1	-9.1	4.5	-1.8	13.5
O=C(CN(c1ccccc1)S(=O)(=O)c1ccc(F)cc1)NC1CCS(=O)(=O)C1 (configuration not stated)	2.1	6.3	i	9.6	·	-10.6	1.6	-5.6
CC1CCN(S(=O)(=O)c2ccc3c(c2)N(CC(=O)NCCCN2CCCCC2C)C(=O)CS3)CC1 (configuration not stated)	0.2	5.6	i	0.5	15.6	8.9	·	·
Cc1ccc(-n2nnnc2SCn2nnc3ccccc3c2=O)c(C)c1	4.7	-13.6	i	75.5*	2.6	·	-15.4	6.0
CCCn1c2ccccc2c2cnn(CC(=O)NCCCN3CCCCC3CC)c(=O)c21 (configuration not stated)	1.6	2.0	i	-7.0	-5.5	-5.9	-11.5	-5.4
O=C(CSc1nnc(NC(=O)C2CC2)s1)NCc1cccs1	-4.3	2.3	i	10.5	0.4	-3.9	-8.2	-2.3
Cc1noc(C)c1C(=O)N1CCN(c2ccccc2O)CC1	1.2	1.5	·	11.4	-5.4	·	·	·
Nc1ccc(O)cc1C(=O)OCC(=O)C12CC3CC(CC(C3)C1)C2	5.1	5.8	·	·	-21.8	51.3	68.2*	51.7*
COC(=O)c1ccc(/C=N/NC(=O)CC(=O)NCC(C)C)cc1	-2.0	0.4	i	·	·	-20.0	-7.2	-0.9
O=C(CSc1nnc(C2CC2)n1-c1ccccc1)Nc1ccc(N2CCOCC2)cc1	-0.7	-1.2	i	·	-7.5	·	5.1	-13.1
Cn1nc(CC#N)c2c(=N)n(N)cnc21	-2.9	2.9	·	-24.4	-21.9	·	·	·
COc1ccc(CNC(=O)CN2CCN(c3ccc(F)cc3)CC2)cc1	-2.2	1.5	i	14.3	-17.4	-3.7	8.9	7.1
CC(=O)NS(=O)(=O)c1cccnc1Nc1cccc(Cl)c1C	1.7	5.9	i	-5.6	-12.0	-15.9	10.4	10.7
COc1ccc(C(CNC(=O)C(CCSC)NC(=O)c2ccccc2Cl)N2CCOCC2)cc1 (configuration not stated)	0.9	0.6	i	-23.8	-3.9	-18.7	·	·
COc1ccc2oc(-c3ccco3)cc(=O)c2c1	-6.2	-1.5	i	-153.8	-18.1	-13.8	9.9	-1.1
Cc1cc(C)c2cc3c(ccn3C3OC[C@H](O)[C@H](O)[C@H]3O)cc2n1 (some centres not stated)	-5.8	4.0	i	·	-4.3	-6.0	32.9*	53.1*	eIF4H FP inh retest=99.9*;PABP FP inh retest=106.8*
CCN1CCCC1CNC(=O)c1ccccc1Cl (configuration not stated)	-1.8	-0.4	i	·	-7.2	-3.1	8.2	-0.1
COc1cccc(CNc2ccc3c(c2)CCC3)c1	-19.5	-0.7	i	-4.1	-7.9	5.6	-8.9	26.5
CCN(C(=O)CN1CCCC(C)C1)c1c(N)n(Cc2ccccc2)c(=O)[nH]c1=O (configuration not stated)	-1.8	0.7	·	-2.4	-11.0	-4.4	·	·
c1nnc(NC2=NCCCCC2)s1	-5.9	1.1	i	-21.3	-10.2	-5.4	-7.3	2.7
(continued)
SMILES	MT1-MMP act inh	MT1-MMP act inh RFP	Rce1 inhib	Env fusion inh	UUG fidelity	CSC inhib	eIF4H FP inh	PABP FP inh	others
O=C(O)CCc1nn2c3ccccc3n(Cc3ccccc3)c2nc1=O	-2.1	8.6	i	-12.5	·	15.8	-5.2	-0.9
CN(CCc1ccccc1)C1CCCN(S(=O)(=O)c2cccc(F)c2)C1 (configuration not stated)	4.0	1.3	i	9.2	-16.7	-2.1	-3.8	-8.6
COc1ccc(/C=C/C(=O)c2cc(Cl)cc(Cl)c2O)c(OC)c1	-0.4	3.7	i	-14.9	-1.9	10.3	-10.8	-6.6
COc1cc(C2NC(=O)NC(C)=C2C(=O)OC(C)(C)C)ccc1OCC(N)=O (configuration not stated)	0.9	0.3	i	-54.6	4.3	0.8	-0.7	1.3
CN(CC(=O)Nc1ccccc1C(F)(F)F)C(=O)CSc1nnc(N)s1	0.6	5.8	·	-28.1	-18.9	5.1	·	·
COc1ccc(N(CC(=O)Nc2ccc(F)c(F)c2)S(=O)(=O)c2c(C)[nH]c(=O)[nH]c2=O)cc1	-4.5	1.6	i	-2.3	1.3	3.8	·	·
COc1ccc(C(=O)NNC(=O)c2cnccn2)cc1[N+](=O)[O-]	2.4	1.5	i	0.4	-5.8	-15.5	2.3	-9.3
O=S(=O)(Cc1ccccc1)N1CCCc2ccccc21	1.6	3.2	i	-3.9	·	-6.7	11.2	-1.7
COc1ccccc1N=Nc1[nH]c2ccc(C)cc2c1O	0.0	2.3	i	-8.0	·	44.0	-1.6	-7.7
O=C(NCCc1ccccc1)C1CC(=O)N(C2CCCC2)C1 (configuration not stated)	0.4	2.2	i	0.2	-4.6	8.4	18.8	-7.5
CCC(=O)Nc1nc(N)n(-c2ccccc2)n1	2.5	10.9	i	-40.8	-52.8	·	-6.5	1.4
O=C(O)CCC(=O)Nc1sc2c(c1C(=O)NC1CCCC1)CCCC2	5.2	1.2	i	35.0	10.1	4.4	3.8	4.3
CC(C)(C)NC(=O)c1ccc2c(c1)C(=O)N(Cc1ccco1)C2=O	-1.1	1.9	i	5.8	-2.1	-9.4	4.1	5.0
COc1ccc(NC(=O)c2ccccc2NC(=O)C2CCCCC2C(=O)O)cc1 (configuration not stated)	-3.2	-3.0	·	-19.6	2.5	·	·	·
O=C(/C=C/c1cccc([N+](=O)[O-])c1)n1cnc2ccccc21	-3.0	-21.9	i	-80.1	·	·	0.7	-9.8
O=C(C1CCN(Cc2ccc(Cl)cc2)CC1)N1CCN(Cc2ccc3c(c2)OCO3)CC1	5.1	-8.8	i	37.8	-4.2	-8.8	5.8	5.7
